Screens from PubChem.
N370S GC – N370S glucocerebrosidase modulation, Gaucher chaperone candidate; N370S GC spleen homogenate, 4MU-glucoside fluorescence; Potency, µM (doses to about 59.4 µM), without a hit: at the top dose activity change, negative = inhibition, actives largely listed as inhibitors; actives 0.092% (n = 330,000);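 note: 0% = full enzyme activity and -100% = no enzyme basal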
KAT2A inh – inhibitors of human GCN5L2 histone acetyltransferase | Q92830 | GCN5L2 HAT assay, ThioGlo1 CoA-SH fluorescence | Potency, µM (highest dose often 58.9 µM), inactives show at the highest dose activity change, negative = inhibition, actives largely listed as inhibitors | actives 0.21% (n = 390,000) | AID 504327
Target sequence (Q92830 whole entry, looked up): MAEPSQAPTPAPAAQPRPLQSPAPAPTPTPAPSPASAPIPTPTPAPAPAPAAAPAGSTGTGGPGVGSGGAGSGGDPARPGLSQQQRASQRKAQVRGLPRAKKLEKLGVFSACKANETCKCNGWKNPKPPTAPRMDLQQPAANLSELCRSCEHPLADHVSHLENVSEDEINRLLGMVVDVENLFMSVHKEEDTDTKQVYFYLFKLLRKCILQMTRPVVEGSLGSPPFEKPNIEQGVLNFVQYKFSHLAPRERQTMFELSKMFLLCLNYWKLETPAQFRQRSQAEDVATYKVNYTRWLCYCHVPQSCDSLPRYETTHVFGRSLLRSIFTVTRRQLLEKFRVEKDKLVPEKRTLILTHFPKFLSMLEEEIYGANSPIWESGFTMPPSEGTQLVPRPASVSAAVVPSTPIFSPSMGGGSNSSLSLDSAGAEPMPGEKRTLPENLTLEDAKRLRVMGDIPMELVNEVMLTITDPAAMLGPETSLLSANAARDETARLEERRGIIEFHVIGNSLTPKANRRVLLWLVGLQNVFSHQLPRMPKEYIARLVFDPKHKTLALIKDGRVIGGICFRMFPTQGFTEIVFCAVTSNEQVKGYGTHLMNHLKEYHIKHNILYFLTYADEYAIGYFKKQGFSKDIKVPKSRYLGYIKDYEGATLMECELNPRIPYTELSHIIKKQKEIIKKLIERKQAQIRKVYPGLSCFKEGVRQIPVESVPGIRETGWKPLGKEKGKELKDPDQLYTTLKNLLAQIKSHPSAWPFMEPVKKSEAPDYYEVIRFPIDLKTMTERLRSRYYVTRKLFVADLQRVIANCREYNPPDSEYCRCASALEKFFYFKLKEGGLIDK
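Titration-based screen in which CoA formation is detected via maleimide probe ThioGlo1 (50uM) turning fluorescent on thiol reaction; substrates H3(1-25) 75uM and acetyl-CoA 70uM, GCN5L2 20nM, 20 min incubation at room temperature.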
Active calls of the source: *; ? = inconclusive; . = not tested or not shown. Calls come from the whole dose curve; as a rule, active = well fitted curve in the direction sought with a large enough effect; inconclusive = small, poorly fitted or top-dose-only effect, or another doubt; inactive = no such curve, though single readings can be large; an effect the other way counts as inactive or inconclusive. Unless noted, % is set by controls: 0 for no effect and ±100 for the full control effect; potency is the fitted concentration of half-maximal effect.

#1 CCS(=O)(=O)c1ccc2oc(SCC(=O)Nc3ccc(OC)cc3)nc2c1
#2 O=C(Cn1nc(C(=O)O)c2ccccc2c1=O)Nc1cccc(S(=O)(=O)N2CCCC2)c1
#3 Cc1cc(C)n(-c2nc3ccccc3nc2Nc2ccc(CC(=O)O)cc2)n1
#4 CC1CCc2ccc(F)cc2N1S(=O)(=O)c1cccs1 (stereo not drawn)
#5 O=C1C=C(NC2CCCCC2)CCC1
#6 COc1cc(NC(=O)CSc2nc(C)cc(C)n2)cc(OC)c1OC

compound no.	1	2	3	4	5	6
N370S GC	-8.0%	-6.1%	6.4%	2.0%	-3.2%	-0.7%
KAT2A inh	-1.1%	-4.3%	-12.9%	-4.6%	-0.1%	-4.2%

One compound at a time, as listed above. Screens in order: N370S GC | KAT2A inh
Cc1cc(C)n(-c2nc3ccccc3nc2Nc2ccc(CC(=O)O)cc2)n1 across the screens: 6.4% | -12.9%
COc1cc(NC(=O)CSc2nc(C)cc(C)n2)cc(OC)c1OC across the screens: -0.7% | -4.2%
CCS(=O)(=O)c1ccc2oc(SCC(=O)Nc3ccc(OC)cc3)nc2c1 across the screens: -8.0% | -1.1%
CC1CCc2ccc(F)cc2N1S(=O)(=O)c1cccs1 (stereo not drawn) across the screens: 2.0% | -4.6%
O=C1C=C(NC2CCCCC2)CCC1 across the screens: -3.2% | -0.1%

Other results.
#7 CC(C)(C)c1ccc(SCCc2cccnc2)cc1
#8 COCc1cc(C)nc(SCC(=O)Nc2cccc3cccnc23)c1C#N
#9 O=C(CC12CC3CC(CC(C3)C1)C2)NCc1ccccc1
#10 CCCCn1c(N)c(N(CCC(C)C)C(=O)c2sc3nc4n(c(=O)c3c2C)CCC4)c(=O)[nH]c1=O
#11 CCCOc1ccc(C(=O)NCCO)cc1
#12 Cc1cccn2c(=O)c3cc(S(=O)(=O)c4ccc(Br)cc4)c(=N)n(C4CCCC4)c3nc12

compound no.	7	8	9	10	11	12
N370S GC	2.1%	26.1%	-9.2%	-1.7%	-2.1%	-1.4%
KAT2A inh	-13.7%	-6.3%	0.3%	2.5%	-4.4%	1.7%

#13 NS(=O)(=O)c1ccc(NC(=O)COC(=O)c2ccc([N+](=O)[O-])s2)cc1
#14 O=C(O)c1cc(-c2ccccc2)nc(-c2ccccc2)c1
#15 COc1cc2c(cc1NC(=O)C(C)N1CCN(S(=O)(=O)c3ccc(C)c(C)c3)CC1)oc1ccccc12 (stereo not drawn)
#16 Cc1cc(C)c(C)c(S(=O)(=O)N2CCN(C(=O)C3CCC3)CC2)c1C
#17 COCCNC(=S)N(CCc1c(C)[nH]c2ccc(F)cc12)Cc1ccco1
#18 C=C(C)CN(CC)C(=O)CN1C(=O)NC2(CCc3ccccc32)C1=O (stereo not drawn)

compound no.	13	14	15	16	17	18
N370S GC	0.8%	.	0.3%	-14.2%	0.4%	-4.7%
KAT2A inh	-0.2%	4.8%	0.0%	-6.9%	-17.1%	-33.9%

#19 O=C(CSc1nnc2ccccn12)Nc1ccc2c(c1)OCCO2
#20 CN(C)CCN(C(=O)/C=C/c1cccs1)c1nc2ccc(F)cc2s1
#21 C=CCn1c(Cc2ccc(OC)cc2)nnc1SCc1nc2ccccc2c(=O)[nH]1
#22 O=C(CCS(=O)(=O)Cc1ccccc1)N1CCc2ccccc2C1
#23 CCOc1ccc(CN(Cc2ccco2)C(c2cccs2)c2nnnn2C(C)(C)C)cc1 (stereo not drawn)
#24 CC(=O)N(CCC(Cc1ccccc1)c1ccco1)Cc1ccco1 (stereo not drawn)

compound no.	19	20	21	22	23	24
N370S GC	5.4%	6.5%	-0.9%	-2.6%	6.7%	-14.3%
KAT2A inh	-3.4%	2.4%	-6.3%	-7.1%	-6.4%	1.7%

As a working copy, 2 of the compounds above:
#23 CCOc1ccc(CN(Cc2ccco2)C(c2cccs2)c2nnnn2C(C)(C)C)cc1 (stereo not drawn)
#24 CC(=O)N(CCC(Cc1ccccc1)c1ccco1)Cc1ccco1 (stereo not drawn)

compound no.	23	24
N370S GC	6.7%	-14.3%
KAT2A inh	-6.4%	1.7%

Next results
#25 O=C(CSc1nc2ccccc2c(=O)n1Cc1ccccc1)NCc1ccco1
#26 Cc1cc(C(=O)N2CCN(c3ccccc3O)CC2)c(C)o1
#27 CCN(Cc1ccccc1)C(c1ccc(C)cc1)c1nnnn1C(C)(C)CC (stereo not drawn)
#28 Cc1ccn2c(=O)nc(SCC(=O)c3ccccc3)nc2c1
#29 CC(C)c1cc(=O)[nH]c(SCC(=O)NC2CCCC2)n1
#30 O=C(NCCc1cccc(Cl)c1)c1ccc(Cl)c([N+](=O)[O-])c1

compound no.	25	26	27	28	29	30
N370S GC	15.3%	-1.9%	8.1%	-0.3%	-22.6%	4.5%
KAT2A inh	18.0%	1.9%	-3.2%	-17.1%	2.2%	-1.9%

#31 CCCCn1c(N)c(N(CC(C)C)C(=O)c2cccs2)c(=O)[nH]c1=O
#32 CCOc1ccc(CCNC(=O)COC(=O)CNC(=O)c2ccc(Br)o2)cc1OCC
#33 COc1ccc(NC(=O)CSc2nccn2Cc2ccc(F)cc2)cc1
#34 CC1CC(C)CN(c2oc(-c3ccco3)nc2C#N)C1 (stereo not drawn)
#35 O=S(=O)(c1ccc(Br)s1)N1CCN(Cc2ccc3c(c2)OCO3)CC1
#36 O=C(/C=C/c1ccccc1)N1CCN(CCN2C(=O)c3cccc4cccc(c34)C2=O)CC1

compound no.	31	32	33	34	35	36
N370S GC	0.5%	-6.2%	-4.0%	-0.3%	1.6%	-2.3%
KAT2A inh	-27.7%	-4.8%	-15.0%	-7.8%	-4.1%	-4.4%

#37 COc1cc(C(=O)NCc2cccc(Cl)c2)ccc1OCC(=O)N1CCOCC1
#38 CCOc1ccc(OCC)c(NS(=O)(=O)c2cc(-c3cc(C)no3)ccc2C)c1
#39 COCC(=O)c1[nH]c2ccccc2c1C
#40 CC(C)CC(=O)Nc1ccc(C(=O)COC(=O)C2=COCCO2)cc1
#41 O=C(COC(=O)c1cccs1)c1ccc2ccccc2c1
#42 Cc1ccc(NC(=O)C2CCN(C(=O)NC3CCCCC3)CC2)c(C)c1

compound no.	37	38	39	40	41	42
N370S GC	-1.1%	.	1.7%	-14.6%	2.5%	3.7%
KAT2A inh	1.4%	-0.7%	-1.3%	-5.1%	-12.0%	-5.0%

#43 Cc1cccc(C)c1NC(=O)CN(C)C(=O)CCC(=O)c1ccccc1
#44 C/C=C(\C)C(=O)Nc1cccc(C2=NOC3(C2)C[C@@H](C(N)=O)N(C(=O)c2ccccc2C(=O)c2ccccc2)C3)c1 (stereo partly drawn)
#45 COc1ccc(-n2nc3c(c2NC(=O)C24CC5CC(CC(C5)C2)C4)CS(=O)C3)cc1 (stereo not drawn)
#46 CCC1Oc2ccc(C)cc2N(CC(=O)N(Cc2ccc3c(c2)OCO3)CC2CCCO2)C1=O (stereo not drawn)
#47 COCCN(C(=O)Nc1ccccc1)C(C)c1cccnc1 (stereo not drawn)
#48 Cc1ccc2cccc(NC(=S)NC(=O)c3ccnn3C)c2n1

compound no.	43	44	45	46	47	48
N370S GC	.	-5.0%	-5.4%	?	8.2%	29.7%
KAT2A inh	-5.7%	0.0%	-2.7%	-11.7%	1.8%	-1.3%

#49 Cn1c(=O)cc(NCCc2ccccc2)[nH]c1=O
#50 O=C(NCCSc1ccccc1)c1ccc(CN2CCOCC2)cc1
#51 O=C(C1CC1)N1CCN(c2nc3ccccc3s2)CC1
#52 COc1ccc(C(=O)CCNc2ccc(C)c(Cl)c2)cc1
#53 Clc1ccc(NCc2nncn2-c2ccccc2)cc1
#54 CCN1CCN(C(=S)Nc2ccc(Cl)cc2Cl)CC1

compound no.	49	50	51	52	53	54
N370S GC	1.0%	-6.7%	-12.3%	5.9%	1.5%	-4.1%
KAT2A inh	1.9%	1.3%	-11.1%	3.2%	-2.9%	-3.8%

#55 CC(C)N1C(=O)C2ON(c3ccccc3)C(c3cccs3)C2C1=O (stereo not drawn)
#56 COC(=O)N/N=C/c1cc(Cl)cc(Cl)c1OCc1ccccc1F
#57 Cc1noc(C)c1CN1C(=O)c2ccc([N+](=O)[O-])cc2C1=O
#58 CC(OC(=O)C1CCC1)C(=O)Nc1cc(Cl)cc(Cl)c1 (stereo not drawn)
#59 CCCC(=O)Nc1nc2c(s1)CC(C(C)(C)C)CC2 (stereo not drawn)
#60 CCCCn1nnc(NC(=O)c2ccc(-c3cccc(Cl)c3)o2)n1

compound no.	55	56	57	58	59	60
N370S GC	6.0%	0.2%	-1.0%	-10.3%	.	-3.3%
KAT2A inh	-6.9%	-6.8%	-3.8%	-15.8%	-5.0%	-7.5%

#61 Cc1ccc(C)c(NC(=O)CSc2nnc(CCCCCNC(=O)OC(C)(C)C)o2)c1
#62 COc1ccc(C(C)=O)cc1CN1C(=O)NC2(CCCC2)C1=O
#63 CCCCCCc1cc2cc(/C(N)=N/NC(=O)c3ccncc3)c(=O)oc2cc1O
#64 CCN(CCNC(=O)C1CCN(c2nnc(-n3cccc3)s2)CC1)c1ccccc1
#65 CC(=O)Nc1ccc(NC(=O)COC(=O)c2cc([N+](=O)[O-])ccc2N2CCOCC2)cc1
#66 CCN(CC(=O)Nc1c(F)cccc1F)C(=O)c1cc(S(=O)(=O)N(C)C)ccc1N1CCCC1

compound no.	61	62	63	64	65	66
N370S GC	14.5%	17.1%	.	0.9%	-5.7%	-9.2%
KAT2A inh	-0.3%	-12.9%	-3.7%	-5.9%	-5.8%	-0.2%

#67 c1ccc(-c2nnc(N3CCCC3)nc2-c2ccccc2)cc1
#68 Cc1cccc(-n2nnnc2SCC(=O)NCC2CCCO2)c1 (stereo not drawn)
#69 CCCCOc1ccccc1C1CC(=O)Nc2cc(OC)c(OC)cc21 (stereo not drawn)
#70 Cc1nn(Cc2c(Cl)cccc2Cl)c(C)c1NC(=O)CCCn1nc(C)c([N+](=O)[O-])c1C
#71 CCOc1ccc(C(C)(N)C(=O)O)cc1 (stereo not drawn)
#72 CCCn1nnc(NC(=O)/C=C/c2cc(Br)ccc2OC)n1

compound no.	67	68	69	70	71	72
N370S GC	?	8.8%	.	8.7%	8.1%	3.9%
KAT2A inh	-20.0%	2.2%	-6.3%	-0.9%	-5.9%	-1.4%

#73 COc1cc(OC)cc(C(=O)Nc2ccc3c(c2)n(C)c(=O)c(=O)n3C)c1
#74 CC#CCNCc1ccccc1
#75 CCOC(=O)c1ccc(NC(=O)CCc2nc3cccnc3n2Cc2cccs2)cc1
#76 C#CCN1C(=O)S/C(=C/c2cc(C)n(CC)c2C)C1=O
#77 COC(=O)c1ccc(NC(=O)CSc2nnc(COc3c(C)cccc3C)o2)cc1
#78 COc1cc2c(cc1OC)C(c1ccc(N(C)C)cc1)NCC2 (stereo not drawn)

compound no.	73	74	75	76	77	78
N370S GC	.	3.2%	.	11.7%	-14.9%	-10.6%
KAT2A inh	-5.0%	-16.3%	-5.8%	-19.3%	-2.1%	1.5%

#79 O=C(Nc1cccc(S(=O)(=O)N2CCOCC2)c1)c1ccc(N2CCCC2=O)cc1
#80 CCSc1nnc(NC(=O)CSc2nnc(Cc3cccn3C)n2-c2ccc(F)cc2)s1
#81 COc1ccc(Nc2ncnc3sc(C)cc23)cc1
#82 CCN(CC)S(=O)(=O)c1ccc(NC(=O)Cn2c(=O)sc3ccccc32)cc1
#83 COc1ccccc1C(CNC(=O)C(C)Oc1ccc(Br)cc1)N1CCCC1 (stereo not drawn)
#84 CC1=C(C(=O)OCC2CCCO2)C(c2ccncc2)C2=C(CC(C)(C)CC2=O)N1 (stereo not drawn)

compound no.	79	80	81	82	83	84
N370S GC	.	2.3%	-16.6%	3.2%	4.3%	?
KAT2A inh	-3.5%	2.6%	-3.3%	2.6%	1.4%	-24.3%

#85 O=C(O)COc1ccccc1/C=C1\C(=O)Nc2ccc(Br)cc21
#86 COc1ccccc1Nc1nc(-c2cccc([N+](=O)[O-])c2)nc2ccccc12
#87 C=CCN1C(=O)C(C)(C)N(C(=O)c2cccc([N+](=O)[O-])c2)c2ccccc21
#88 CN=C1SC(CC(=O)Nc2cccc(Cl)c2Cl)C(=O)N1C (stereo not drawn)
#89 Cc1ccc(NC(=O)CO/N=C(\N)c2nonc2N)cc1C
#90 O=C(CN1CCC(NC(=O)c2ccccc2Cl)CC1)NCc1ccccc1
#91 COc1ccc(C(=S)N2CCNCC2)cc1
#92 CCN(CC)c1cc(-c2ccccc2)ncn1
#93 Cc1cccc(NC(=O)Cc2nc(-c3c[nH]c(C(=O)N4CCCC4)c3)cs2)c1

compound no.	85	86	87	88	89	90	91	92	93
N370S GC	-1.0%	17.0%	-21.8%	8.8%	4.0%	-15.5%	22.5%	-12.9%	-4.0%
KAT2A inh	-5.5%	-9.3%	-5.9%	-3.1%	0.0%	-7.5%	3.6%	-0.4%	-13.5%

Some of the compounds tested, and most or all hits are left out here.
